UUG fidelity: alters start codon recognition fidelity in yeast | S. cerevisiae UUG-firefly luciferase reporter, luminescence/redox ratio | activity score, % at 18.7 µM | 350,000 compounds, 0.13% hits;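 active = replicate mean at a twofold rise or more, about +100% in these data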;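 note: firefly luciferase made from a UUG start codon reports start codon fidelity; reporter light over untreated wells divided by growth signal over untreated wells; some hits fall short of that in this replicate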
Rce1 inh: yeast Ras-converting enzyme inhibition; Q03530; yeast membranes, quenched prenylated peptide cleavage fluorescence; calls only; 290,000 compounds, 0.27% hits;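 active = fall in fluorescence gain of 50% or more versus controls, with final raw signal at or below 3038400; inconclusive = same 50% fall but final raw signal above 3038400; inactive = fall in fluorescence gain under 50%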;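 note: plate controls were neutral control wells for no effect and wells lacking membranes for full effect; tested at 10 µM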
CSC inhib: blocks cancer stem cells | cancer stem cell-like cells viability, luminescence | inhibition, % at 7.5 µM | 300,000 compounds, 1.1% hits;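 active = mean at 75% or more and at least half the replicates too; inconclusive = mean and replicates disagree; tested in HMLE shEcad cells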;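 note: 0% = median of negative and 100% = median of positive control wells; the first replicate is given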
PABP FP inh: PABP-poly(A) binding inhibition | 290,000 compounds, 1% hits | AID 2014 | P11940 | inhibition, % at 35 µM | PABP-poly(A) RNA binding, fluorescence polarization;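 active = 50% or more with normal probe brightness, or confirmed in later tests; inconclusive = above 50% with abnormal brightness, or retests that disagree; inactive = below 50% or failed in later tests; about a fifth of its hits are not listed in these tables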;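 note: calls also rest on retests at 20 µM and on dose response follow-up; controls were probe without protein and protein plus probe with vehicle; some compounds called inactive have numbers as strong as hits; many hits fall short of the cut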
Target sequence (P11940 whole entry, looked up): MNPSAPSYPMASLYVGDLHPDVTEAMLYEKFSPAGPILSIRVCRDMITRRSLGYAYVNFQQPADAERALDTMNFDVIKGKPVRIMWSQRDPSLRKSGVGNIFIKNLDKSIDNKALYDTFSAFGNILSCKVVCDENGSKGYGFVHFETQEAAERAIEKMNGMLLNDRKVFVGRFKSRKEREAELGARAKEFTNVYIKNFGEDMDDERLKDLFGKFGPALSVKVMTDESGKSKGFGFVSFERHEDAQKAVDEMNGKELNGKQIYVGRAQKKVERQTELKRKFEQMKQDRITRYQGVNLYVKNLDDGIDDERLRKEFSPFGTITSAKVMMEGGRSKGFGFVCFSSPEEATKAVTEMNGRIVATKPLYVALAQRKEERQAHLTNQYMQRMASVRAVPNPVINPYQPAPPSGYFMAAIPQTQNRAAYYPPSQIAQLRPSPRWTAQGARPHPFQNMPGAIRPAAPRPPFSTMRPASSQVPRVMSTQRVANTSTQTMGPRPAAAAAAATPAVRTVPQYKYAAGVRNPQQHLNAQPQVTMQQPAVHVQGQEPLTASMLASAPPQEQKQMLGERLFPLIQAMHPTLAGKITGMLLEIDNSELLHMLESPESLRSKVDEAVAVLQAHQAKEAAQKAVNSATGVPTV
Env fusion inh: blocks HIV Env-driven cell-cell fusion; HeLa-JRFL Env/CEM21 cell fusion, luciferase; inhibition, % at 12.3 µM; 360,000 compounds, 1.1% hits;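 active = mean replicate inhibition score of at least 50 and every replicate individually at or above 50; inconclusive = only one of the two criteria met; inactive = mean below 50 and not all replicates reaching 50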;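 note: 0% = plate neutral controls and 100% = maraviroc near 300 nM; one replicate is shown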
MT1-MMP act inh: blocks activation of human MT1-MMP | 360,000 compounds, 0.061% hits | P50281 | HT1080 RFP-PRO-GFP cells, GFP/RFP ratio fluorescence, overnight; percent of plate control window, DMSO zero | GFP/RFP ratio change, % at 20 µM;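 active = GFP/RFP ratio change of at least 30% with cell ATP level not reduced by more than half and red fluorescence within 50% of control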; note: strong numbers were not always called active
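Assay system: HT1080 RFP-PRO-GFP cells | Dosing: 20 µM single dose, 1% DMSO | Incubation: Cells overnight before dosing, compound overnight, 37 °C, 5% CO2 | Evaluation: GFP/RFP fluorescence ratio | Control set: DMSO-only wells and HT1080 RFP-L50D-GFP cell wells as references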
eIF4H FP inh: inhibitors of RNA binding by human eIF4H | eIF4H fluorescence polarization binding assay | inhibition, % at 35 µM | AID 2012 | 290,000 compounds, 0.94% hits | Q15056;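 active = 50% or more with normal probe brightness, or confirmed in later tests; inconclusive = above 50% with abnormal brightness, or retests that disagree; inactive = below 50% or failed in later tests; about a fifth of its hits are not listed in these tables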;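 note: calls also rest on retests at 20 µM and on dose response follow-up; 0% = protein and probe with vehicle and 100% = probe without protein; strong numbers were not always called active; many hits fall short of the cut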
MT1-MMP act inh RFP: further read-out of MT1-MMP act inh, marked with its call; RFP signal change, %; measured here: RFP expression control read;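 0 = vehicle wells; hits needed this value within 50% of zero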
* = called active by the depositor; i = inactive; ? = inconclusive; nt = no result given; & = joins results of further samples.

SMILES	UUG fidelity	Rce1 inh	CSC inhib	PABP FP inh	Env fusion inh	MT1-MMP act inh	MT1-MMP act inh RFP	eIF4H FP inh
CCCN(C(=O)c1cccc(S(=O)(=O)N2CCCc3ccccc32)c1)C1CCS(=O)(=O)C1 (configuration not stated)	-12.3	nt	-3.1	nt	-2.3	-3.4	-4.3	nt
Cc1ccc(NC(=O)CSc2n[nH]c(-c3ccncc3)n2)cc1	-24.4	i	-11.0	7.5	-30.0	5.7	0.0	3.2
CCCn1c(=O)[nH]c(=O)c2c1nc(-c1ccc(C#N)cc1)n2CCOC	9.7	i	-6.8	8.1	-14.3	1.9	2.1	2.3
COc1cc(NC(=O)c2ccccc2F)ccc1NC(=O)c1cc2ccccc2o1	-15.7	i	37.6	-14.5	-6.5	1.8	-0.8	-1.8
Cc1ccc2c(c1)C(=O)N1[C@H]3c4cc(Br)ccc4OC[C@@H]3[C@H](c3ccccc3)[C@]1(C)C(=O)N2	-20.0	nt	23.8	nt	16.8	-22.6	-21.0	nt
COCCCNC(=O)CCn1c(=O)c2ccccc2n(CC(=O)Nc2c(C)cccc2C)c1=O	3.6	i	-11.6	-10.6	nt	-0.7	1.6	-0.5
O=C(/C=C/c1ccccc1)Nc1scc(-c2ccccc2)c1C(=O)O	nt	i	nt	-16.1	-5.0	1.8	6.2	-2.0
COc1ccc2c(=O)c3c(=O)n(-c4ccccc4)c(-c4ccc(C)cc4)nc3oc2c1	nt	i	-19.4	-3.2	-63.6	1.9	5.0	-4.5
CCCCSc1nnc([C@@H](NC(=O)OC(C)(C)C)C(C)C)o1	-10.4	i	0.6	-8.5	?	2.9	-0.4	5.6
Cc1ccnc(NC(=O)C2(c3cccs3)CCOCC2)c1	-6.4	i	17.2	2.0	nt	2.6	-4.1	2.9
CC1(C)C2CC[C@]3(C)C(CC=C4[C@@H]5C[C@@](C)(CO)[C@@H](O)C[C@]56C[C@@H](OC6=O)[C@]43C)[C@@]2(C)CC[C@@H]1O (some centres not stated)	-10.5	i	-14.1	nt	nt	5.9	4.6	nt
Cc1ccc(-c2cc(-c3ccccc3)c3c(N)c(S(C)(=O)=O)sc3n2)cc1	-16.2	i	nt	125.4*	-9.7	-7.9	-2.8	105.0*
Cc1oc(S(=O)(=O)N2CCCC2)cc1C(=O)Nc1ccc(F)cc1	nt	nt	-8.7	5.1	6.9	3.9	-6.5	10.0
CC(C(=O)NCc1ccccc1)n1cc([N+](=O)[O-])cn1 (configuration not stated)	-2.6	i	-2.1	6.3	2.2	-1.0	1.6	6.3
CCCCn1c2ccc(F)cc2c2nnc(NN)nc21	nt	i	-7.3	3.3	30.7	11.1	8.2	-7.7
CC1CCC/C(=N/NC(=O)c2ccccc2-n2cccc2)C1 (configuration not stated)	-27.8	i	18.9	-2.7	-2.0	-0.1	3.2	-1.4
O=C(CSc1nn(-c2ccc(F)cc2)c(=S)s1)N1CCN(C(=O)c2ccco2)CC1	-12.6	i	nt	8.4	nt	-7.7	-3.7	3.2
Fc1cccc(CSc2nnc3ccc(-c4ccncc4)nn23)c1	-18.9	i	-3.8	-5.5	-9.2	-9.0	-7.6	5.7
Cn1ncc(Cl)c1C(=O)Nc1cccc(Cl)c1	-13.1	i	-2.3	0.0	-33.0	-2.1	2.7	-0.1
CCn1c(SCC(=O)Nc2ccc(C(C)=O)cc2)nc2c([nH]c3ccccc32)c1=O	-6.1	i	12.2	-6.8	-39.0	-1.0	-0.8	-5.7
O=C(/C=C/c1ccc(S(=O)(=O)NCc2ccco2)cc1)NCc1ccccc1Cl	nt	i	-5.2	-4.4	3.0	-0.4	-4.5	-4.9
O=C(c1cc2c(s1)CCCC2)N1CCN(c2ccccc2)CC1	nt	i	0.6	7.6	-13.7	1.1	-2.7	-2.2
CC1CCCCN1C(=O)c1ccc(COc2ccc([N+](=O)[O-])cc2)o1 (configuration not stated)	-3.5	i	7.5	6.0	-2.0	1.6	1.7	-1.0
Nc1c(C(=O)N2CCCC2)sc2nc3c(cc12)CCCCCC3	nt	i	8.5	-4.3	-16.8	0.4	0.8	2.4
CC(C)NC(=O)c1cc2n(n1)C(C(F)(F)F)CC(c1ccco1)N2 (configuration not stated)	-4.5	i	-4.5	10.3	-9.5	3.0	5.3	-4.9
CC1CC(C)CN(S(=O)(=O)c2ccc(C(=O)NCc3ccc4c(c3)OCO4)cc2)C1 (configuration not stated)	-6.1	i	nt	3.6	13.5	2.8	-2.6	-2.6
O=C(c1ccccc1F)N1CCC(N2CCCCCC2)CC1	5.5	i	-2.5	-6.7	-24.9	5.8	7.1	4.4
Cc1nc2ccccc2cc1C(=O)N/N=C/c1cccc([N+](=O)[O-])c1	nt	i	-4.3	4.4	12.1	8.6	-2.4	-11.3
CC(=O)N1CCN(c2ccc(NC(=S)NC(=O)c3ccccc3)cc2)CC1	-26.4	i	-10.9	-8.7	-4.4	3.8	1.3	-8.1
O=C(NCCN1CCN(c2ccccc2)CC1)Nc1ccccc1Cl	-13.2	i	-10.6	1.0	-3.7	1.4	1.8	0.1
C=CCNC(=S)Nc1nc2c(cc1C(=O)OCC)CCCC2	nt	i	-9.6	3.5	-455.1	7.5	-8.6	-1.1
Cc1cccc(NS(=O)(=O)c2ccc(C)c(C(=O)NC3CCN(Cc4ccccc4)CC3)c2)c1	-1.2	nt	nt	nt	2.3	-2.3	-11.4	nt
CC(=O)N1CCCC(C)(C(=O)Nc2cccc(OC(C)C)c2)C1 (configuration not stated)	-19.8	nt	nt	nt	-11.4	3.9	6.0	nt
COc1ccc(S(=O)(=O)N(CC(=O)NCC2CCCO2)c2ccc(Cl)cc2)cc1 (configuration not stated)	-9.0	i	1.2	1.0	2.2	-1.8	1.8	0.7
COc1ccc(C(=O)Nc2ccc3[nH]ncc3c2)cc1	-43.0	i	-8.2	2.8	-18.7	-2.2	-5.1	-11.5
C=CCOC(=O)C1=C(C)NC(=O)NC1c1ccc(O)cc1 (configuration not stated)	-11.4	i	5.6	-6.7	-5.5	1.9	-2.1	-8.0
COc1ccc(N=C2S/C(=C\c3ccc(C)o3)C(=O)N2CC(C)C)cc1	-13.5	i	11.7	0.9	nt	-4.4	-1.2	6.6
Cc1cccc(C)c1NC(=O)NC1(C(=O)N2CCCCC2)CCCCC1	5.3	i	nt	-0.8	-5.1	0.0	-1.7	-4.0
Cn1c(N2CCOCC2)c(/C=N/O)c2ccccc21	nt	i	2.9	-6.4	-16.3	0.2	-1.4	10.1
Cc1oc(C(C)(C)C)cc1C(=O)Nc1cccc(C(=O)O)c1	-29.3	i	-3.0	-0.7	-42.2	0.7	5.4	-2.3
N#CC1(NC(=O)COC(=O)c2ncc(Cl)c(Cl)c2Cl)CCCCC1	-16.4	i	-9.2	nt	-16.5	2.1	4.3	nt
O=C(O)c1cc(S(=O)(=O)Nc2ccc(OCc3ccccc3)cc2)ccc1Br	-16.5	nt	-3.6	7.8	-50.5	0.0	-3.2	-18.8
O=C(NCCc1ccccn1)c1cccc(S(=O)(=O)N2CCCCCC2)c1	0.4	i	-9.8	-1.8	nt	11.0	3.9	-0.1
NS(=O)(=O)c1ccc(NC(=O)c2cc(-c3cccs3)nc3ccccc23)cc1	nt	i	10.4	-12.0	-10.9	-9.5	-17.6	3.9
Cc1ccc(-n2c(-c3ccc(Cl)cc3Cl)n[nH]c2=S)cc1	-24.6	i	-5.5	-5.2	0.6	-5.8	-5.2	-5.6
CN(CC(=O)Nc1ccc(F)cc1Cl)Cc1cccs1	-12.9	i	-5.8	16.3	1.5	-3.6	-1.8	30.9
COc1ccc(CCNCC(C)c2ccccc2)cc1 (configuration not stated)	1.4	i	-17.3	-8.3	35.3	1.0	6.3	2.7
O=C(Nc1nnc(-c2ccc(Cl)cc2)o1)c1ccc(N2C(=O)CCC2=O)cc1	nt	i	5.9	10.6	-9.2	3.9	7.6	4.4
O=C(N=c1ccn(-c2nc3ccccc3nc2NS(=O)(=O)c2ccc(Cl)cc2)cc1)c1ccccc1Cl	nt	i	-3.4	?	nt	nt	nt	?
Cc1cccc(NC(=S)NCc2ccco2)c1C	-13.1	i	-6.6	-9.6	-22.7	-4.3	1.2	10.3
Other entries.
SMILES	UUG fidelity	Rce1 inh	CSC inhib	PABP FP inh	Env fusion inh	MT1-MMP act inh	MT1-MMP act inh RFP	eIF4H FP inh
O=[N+]([O-])c1cc(S(=O)(=O)Nc2cccc(Cl)c2)ccc1N=Nc1c(O)[nH]c2ccccc12	nt	i	96.2*	1.7	0.5	1.3	-27.7	22.4
CCOC(=O)c1ccc(NC(=O)COC)cc1	-21.2	i	-6.6	0.9	-28.6	1.1	0.2	-1.2
O=c1c2c3c(sc2n(CCN2CCOCC2)c(=O)n1Cc1ccco1)CCCCC3	6.3	i	34.7	-2.4	19.9	5.3	-3.1	-1.1
COc1cc(NC(=O)CN2CCN(c3ccccc3F)CC2)cc(OC)c1	-18.2	nt	1.6	-1.2	nt	2.5	1.8	-13.2
O=C(NCc1ccccc1)C1CCCN(c2ncnc3c2nc2n3CCCCC2)C1 (configuration not stated)	27.2	i	12.1	8.8	-3.5	-1.0	-1.9	6.3
Cc1ccc(OC(=O)c2cccc(S(=O)(=O)N3CCN(C)CC3)c2)c(Br)c1	-14.2	i	-14.4	-1.2	nt	5.4	3.4	-4.5
COc1ccc(C(=O)NCC(=O)OCC(=O)N2CCN(S(=O)(=O)c3ccccc3)CC2)cc1	nt	i	-8.0	2.3	-58.0	-0.8	5.1	-4.3
Cc1nc2c3cc(Cl)ccc3n(CCN3CCCCC3)c2s1	-3.3	i	34.2	-7.2	nt	1.1	-15.6	-1.2
COc1ccc(CN(C(=O)c2ccccc2Br)C2CCS(=O)(=O)C2)cc1 (configuration not stated)	-7.5	i	nt	-1.5	19.3	-0.6	2.8	-14.4
Cc1ccc2c(=O)n3c(nc2c1)C(C)NC(=O)c1cccnc1-3 (configuration not stated)	-11.9	nt	nt	nt	-65.9	-2.8	3.2	nt
CCOc1ccc(/C=N/NC(=O)Nc2ccccc2)cc1	nt	i	-7.7	-11.5	-196.1	0.5	-0.3	7.9
CC1CC(C)(C)NC(=S)N1CCCC(=O)Nc1ccc(Br)cc1 (configuration not stated)	-31.4	nt	-4.0	-6.3	16.0	0.1	0.2	0.7
CCOC(=O)N1CCN(CCC(=O)Nc2cccc(Br)c2)CC1	-23.2&7.8	i	-5.3&-12.4	12.2&-3.4	-16.3	3.3&3.4	-3.9&0.3	-2.5&2.7
O=C(/C=N/O)Nc1ccc2sc3ccccc3c2c1	-6.1	i	23.3	3.6	1.2	-5.9	-4.7	-1.0
Cc1cccc(C)c1N=Nc1c(C)cc(O)cc1C	-9.4	i	99.4*	-4.9	-11.3	10.2	2.6	-3.2
COc1cc(C)c(Cl)c(C)c1S(=O)(=O)NC1CC(C)(C)NC(C)(C)C1	-10.8	i	15.8	3.0	3.8	3.1	0.2	3.8
CC(/C=N/n1c(-c2ccc(Cl)cc2)n[nH]c1=S)=C\c1ccco1	1.1	i	14.6	-0.9	-1.1	-4.0	0.7	22.4
O=C(O)c1ccc(Cl)c(S(=O)(=O)NCC2CCCO2)c1 (configuration not stated)	-5.3	i	0.8	-2.0	?	-3.6	2.8	0.1
CC(=O)C1=C(O)C(=O)N(c2ccc(Br)cn2)C1c1ccc(F)cc1 (configuration not stated)	nt	i	-12.7	10.2	10.6	4.8	-1.3	1.7

Not all compounds are listed; the hit share may differ from the screen's.
